Screens deposited in PubChem by National Center for Advancing Translational Sciences (NCATS).
VACV Venus inh: vaccinia inhibition (Venus reporter); Vaccinia virus Venus reporter expression, fluorescence; Potency, µM (series often up to 36.5 µM), without a hit: at the top dose activity change, negative = inhibition, most hits filed as inhibitors; actives 0.46% (n = 330,000); AID 720580; active means well fitted inhibition curve with a large enough effect; inconclusive means small, poorly fitted or top-dose-only effect; inactive means no such curve, though single readings can be large or run the other way; tested in A549 cells; note: nearly all actives have a fitted effect of over 30% in size; inactives centre near -10
VACV mCherry inh: vaccinia inhibition (mCherry reporter). Potency, µM (highest dose often 36.5 µM), for inactives: top-dose activity change, negative = inhibition, hits mostly inhibitors. actives 0.63% (n = 310,000). AID 720579. Vaccinia virus mCherry reporter infection, fluorescence; about a quarter of the inactives have no number; active = well fitted inhibition curve with a large enough effect; inconclusive = small, poorly fitted or top-dose-only effect; inactive = no such curve, though single readings can be large or run the other way; tested in A549 cells; note: nearly all actives have a fitted effect of over 35% in size; inactives centre near -10
The depositor's hits bear a star; i = inactive; ? = inconclusive; nt = not tested or not shown; & = joins results of further samples; [ ] = another dose, or the depositor's remark. % is set by controls: 0 for no effect and ±100 for the full control effect; potency is the fitted concentration of half-maximal effect.

Every second line gives: VACV Venus inh, VACV mCherry inh
- C=CCn1c(=O)n(CCOC)c(=O)c2sc3ccccc3c21
    9%, -8%
- COc1cccc(NC(=O)CN(C)C(=O)c2cc(C)on2)c1
    -9%, i
- O=C(CSc1nc2c([nH]c3ccccc32)c(=O)n1-c1ccccc1)N1CCCCC1
    -8%, -10%
- O=C(Nc1cccc(-c2nnc(-c3ccccc3)o2)c1)C1CCCO1 (stereo not drawn)
    0%, i
- N#CC1=C(SCC(=O)c2ccc(Br)cc2)NC2=C(C(=O)CCC2)C1c1ccco1 (stereo not drawn)
    ?, ?
- CCS(=O)(=O)N1CCC2(CC1)OC(=O)C(C)=C2C(=O)NCc1ccccc1C
    -7%, -7%
- COc1cc2c(cc1OC)CN(C(=O)c1ccc(S(=O)(=O)N3CCCCC3)cc1)CC2
    -2%, -5%
- COc1ccc(-c2nc(Cn3c(SCc4cccc(Cl)c4)nc4ccncc43)c(C)o2)cc1
    -7%, -14%
- CCCCN1C(=O)C(CC(=O)NC2CCCCC2)CC(C(=O)N2CCOCC2)=C1C (stereo not drawn)
    -5%, 39%[activator]
- O=C(Cc1ccc2cccnc2c1)c1ccc(O)cc1O
    -2%, -25%
- COc1ccc(CN(C)C(C)C(=O)Nc2ccc(S(=O)(=O)N3CCOCC3)cc2)c(OC)c1 (stereo not drawn)
    -17%, i
- Cc1[nH]c2ccccc2c1C1(O)C(=O)N(Cc2ccccc2Cl)c2ccccc21 (stereo not drawn)
    -12%, -16%
- CCCCn1cnc2c(cnn2-c2ccc(Cl)cc2)c1=O
    -8%, nt
- CN1CCC(=NNC(=O)c2cc(-c3ccc(Cl)cc3)n[nH]2)CC1
    -16%, ?
- Cc1ccc(NC(=O)COc2ccccc2C(=O)Nc2ccccc2)cc1Cl
    -9%, -14%
- CC1CCCCN1S(=O)(=O)c1ccc(S(=O)(=O)NCCc2ccncc2)cc1 (stereo not drawn)
    -20%, i
- Cc1ncc2c(c1CNC(=O)c1cncs1)CCN(C(=O)c1cccc(-c3cccc(F)c3)c1)C2
    0%, i
- COCCNC(=O)c1cc2c(c(-c3cccc(C#Cc4ccc(OC)c(OC)c4)c3)n1)[C@@H](CCO)N(S(=O)C(C)(C)C)C2 (stereo partly drawn)
    -3%, i
- COc1cccc(-c2c(C(=O)O)cc(O)c3ccc(OC)cc23)c1
    -3%, -1%
- COc1ccc(NC(=O)c2cc(-c3cc(F)ccc3OC)n[nH]2)cc1OC
    -9%, 3%
- Cc1cc2ccccc2nc1SCC(=O)NC1CCCCC1
    1%, i
- CCc1ccccc1N(CC)C(=O)c1cn(C)c(=O)c2cc(OC)c(OC)cc12
    -19%, -17%
- CC(C)N1CCN(Cc2ccc(C#CCCO)cc2)CC1CCO (stereo not drawn)
    2%, i
- CCOc1ccc(NC(=O)c2cnn3c2NC(c2ccccc2)=CC3c2cccc(OC)c2OC)cc1 (stereo not drawn)
    -14%, -19%
- CCCCOCCCNS(=O)(=O)c1ccccc1
    -8%, i
- COc1cccc(C(=O)Nc2nnc(S(=O)(=O)N3CCOCC3)s2)c1
    -7%, -9%
- OCC1(CCCc2ccccc2)CCN(C2CCSCC2)CC1
    -9%, ?
- CC(C)C(=O)N1c2nc(C(C)C)nn2C2(CCCCC2)[C@@H]2CCCC[C@@H]21
    -18%, -6%
- Cc1ccc(CNC(=O)CCc2c(C)c3ccc(O)c(C)c3oc2=O)cc1
    8%, 6%
- CCCCN1CCc2nc(Nc3ccc(OC)cc3OC)ncc2C1
    -4%, -5%

Next results
Every second line gives: VACV Venus inh, VACV mCherry inh
- COc1ccccc1CNC(=O)C(=O)NCC1OCCCN1S(=O)(=O)c1ccc(F)cc1C (stereo not drawn)
    -28%, -27%
- CCCN1Cc2cccc(C(=O)NC(CC(=O)OCC)c3ccc(OC(C)C)cc3)c2C1=O (stereo not drawn)
    -5%, i
- O=C(NCC1Cc2cccc(-c3cncnc3)c2O1)C1CC1 (stereo not drawn)
    0%, -3%
- O=C(Cc1ccsc1)NCC(c1ccco1)N1CCCCC1 (stereo not drawn)
    -1%, -2%
- CC(NC(=O)Cn1nc(-c2ccccc2)c2ccccc2c1=O)c1ccccc1 (stereo not drawn)
    -8%, -2%
- COc1ccc(-n2cnnc2)cc1
    -22%, nt
- COc1ccc(NC(=O)c2cc3c(=O)n(Cc4ccco4)ccc3nc2C)cc1
    -10%, -5%
- CC1NS(=O)(=O)c2cc([N+](=O)[O-])ccc21 (stereo not drawn)
    1%, 1%
- Cc1cc(C)cc(-n2ncc3c2CCCC3NC(=O)c2cc(C)oc2C)c1 (stereo not drawn)
    -23%, -19%
- CN1CC[C@H](c2c(O)cc(O)c3c(=O)cc(-c4ccccc4Cl)oc23)[C@H](O)C1
    0.079µM*, 0.32µM*
- COc1ccc([N+](=O)[O-])cc1N(CC(O)CN1C(=O)NC(C)(C)C1=O)S(=O)(=O)c1ccc(C)cc1 (stereo not drawn)
    -12%, i
- N#Cc1ccccc1S(=O)(=O)N1CCN(C(=O)CN2CCCSc3ccccc32)CC1
    -11%, -15%
- O=C(COC(=O)c1ccccc1)Nc1cccc(S(=O)(=O)N2CCCCC2)c1
    -12%, 0%
- COc1cc(Cl)c(C)cc1Nc1nc2ccccc2c2nnc(C)n12
    9%, -3%
- CCc1ccc(-c2cc(C)no2)cc1S(=O)(=O)N1CCN(c2cc(C)ccc2C)CC1
    -20%, -1%
- Cc1c(NC(=O)c2ccc(Cl)cc2)cc(C(C)C)c(O)c1S(=O)(=O)c1ccc(Cl)cc1
    -5%, 9%
- c1ccc(Cn2nnnc2C(c2cccs2)N2CCSCC2)cc1 (stereo not drawn)
    1%, -9%
- Cc1cc([N+](=O)[O-])ccc1NC(=O)CCC(=O)N1CCCCCC1
    2%, -10%
- COc1ccc(/C=N\N=C2/SC(CC(=O)O)C(=O)N2c2ccc(O)cc2)cc1OC (stereo not drawn)
    -7%, -13%
- CCc1ccc2c(c1)C(c1ccc([N+](=O)[O-])cc1)=NNC(c1ccc(Br)cc1)=N2
    -10%, i
- C=C[C@]1(C)C=C2C(=O)[C@@]3(O)OC(=O)[C@@]4(CCCC(C)(C)[C@H]34)[C@@]2(O)CC1
    10µM*, 8.9µM*
- CC1=N/C(=C\c2ccc([N+](=O)[O-])cc2)C(=O)N1c1ccc(Cl)cc1
    -11%, -15%
- COC(=O)CSc1nnc(C)c(=O)[nH]1
    3%, -6%
- COc1ccc(C(=O)CN2CCN(S(=O)(=O)c3ccc(F)cc3)CC2)cc1
    -18%, -2%
- CN(C)c1ccc(/C=C/c2ccnc3c(O)ccc(O)c23)cc1
    -12%, 0%
- Cc1ccc(C(=O)N2CC(=O)Nc3ccc(F)cc3C2c2ccc(F)cc2)cc1 (stereo not drawn)
    2%, i
- COc1ccc(CCNC(=O)CSc2nc3ccsc3c(=O)n2Cc2ccccn2)cc1OC
    -7%, i
- O=C(Nc1nccs1)C1CCN(S(=O)(=O)c2ccc3c(c2)OCCCO3)CC1
    -23%, -3%
- O=C(C[C@@H]1C/C=C\C[C@@H](Cc2ccc(F)cc2)C(=O)OCCNC1=O)NCCO
    -10%, i
- CN1CCN(C(=O)C2=C[C@H](c3coc4ccccc4c3=O)C[C@H](OCc3ccc(CO)cc3)O2)CC1
    -7%, i

The list goes on.
Every second line gives: VACV Venus inh, VACV mCherry inh
- O=C(CSc1n[nH]c(-c2cccs2)n1)NCCc1ccccc1
    -5%, -1%
- Cc1ccc(C(=O)NC2CCN(C(=O)Nc3ccc(F)cc3)CC2)cc1
    6%, -1%
- O=C(Nc1cccnc1N1CCOCC1)c1cccs1
    -4%, i
- CCc1ccc(Nc2nnc(-n3nc(C)cc3C)c3ccccc23)cc1
    -1%, -5%
- CC(C)(C)C(=O)N1CCC2CC1c1cc(-c3ccc4c(c3)OCO4)ccc12 (stereo not drawn)
    5%, 30%
- CC(=O)c1ccc(NCC2COc3ccccc3O2)c([N+](=O)[O-])c1 (stereo not drawn)
    -24%, -27%
- COc1cccc(OC)c1C(=O)NC(=S)N1CCN(c2ccc(C(F)(F)F)cc2[N+](=O)[O-])CC1
    ?, -14%
- CC(=O)c1cccc(NC(=O)Cn2ccn3nc(-c4ccccc4)cc3c2=O)c1
    5%, 4%
- Cc1cccc(-n2c(CNC(=O)Cc3ccccc3)n[nH]c2=S)c1
    4%, -4%
- CCOc1ccc(-c2[nH]ncc2Oc2ccccc2OCC)c(O)c1
    ?, nt
- COc1cccc2sc(N3CCN(C(=O)c4ccco4)CC3)nc12
    -16%, i
- CCOC(=O)/C(C#N)=N/Nc1c(C)n(C)n(-c2ccccc2)c1=O
    -7%, ?
- CCc1cccc(C)c1NC(=O)CSc1nc2ccccc2nc1N1CCOCC1
    -1%, -4%
- CCOC(=O)c1cc(C#N)c(N2CCN(C(=O)c3ccccc3)CC2)nc1C(F)(F)F
    -11%, -14%
- Cn1nc(C(F)(F)F)c2cc(C(=O)Nc3ccc(C(F)(F)F)cc3)sc21
    -16%, i
- CCCC(CCC)C(=O)Nc1nnc2n1CCS2
    -1%, 5%
- COCCCNC(=O)C(=O)NCC(c1ccco1)N1CCN(c2ccc(OC)cc2)CC1 (stereo not drawn)
    -16%, -18%
- O=C(c1ccc(COc2ccc(Cl)cc2)o1)N1N=C(C(F)F)CC1(O)C(F)F (stereo not drawn)
    ?, -34%
- CCOc1ccc(C2C(C(=O)Nc3ccccc3)=C(C)N=c3s/c(=C/c4cccc(OCC(=O)O)c4)c(=O)n32)cc1 (stereo not drawn)
    6%, -6%
- Nc1cc(N)nc(SCc2cccnc2)n1
    -5%, -13%
- COc1ccccc1N1CCN(C(=O)c2cc(-c3ccccc3)on2)CC1
    -2%, -8%
- COc1ccc(-c2c(C)oc3c(CN4CCCCC4C)c(O)ccc3c2=O)cc1 (stereo not drawn)
    -16%, -14%
- CCNc1nc(NCC)nc(SCCOC(=O)c2ccccc2)n1
    -20%, -4%
- CN(C)CCNC(=O)Cc1ccc([N+](=O)[O-])cc1
    0%, -9%
- CCOc1ccc(S(=O)(=O)NCCCN2CCOCC2)c2ccccc12
    ?, ?
- N/C(=N\OC(=O)c1ccncc1)c1cccc([N+](=O)[O-])c1
    -15%, i
- CC(=O)c1c(C)[nH]c(C(=O)Nc2nc(C)cs2)c1C
    -1%, -5%
- COc1cc(C(=O)Nc2cc(C(F)(F)F)ccc2Cl)cc(OC)c1OC
    -14%, -6%
- NCCCC[C@H]1CNC(=S)N1CCc1cc(C(F)(F)F)cc(C(F)(F)F)c1
    -23%, -18%
- O=C(O)Cc1sc(N/N=C\c2ccncc2)nc1-c1ccccc1
    99%[activator], ?

The listing continues:
Every second line gives: VACV Venus inh, VACV mCherry inh
- CC(=O)c1ccc([C@H]2C[C@@]34CN(C(=O)OC(C)(C)C)S(=O)(=O)[C@H]3C[C@H]2O4)cc1
    -15%, -10%
- CCNC(=O)N1CCN(CCCC(c2ccc(F)cc2)c2ccc(F)cc2)CC1
    -22%, i
- CN1CCN(S(=O)(=O)c2ccc(Oc3ccc(Br)cc3F)nc2)CC1
    -16%, -10%
- N=c1c2c(n(Cc3ccc([N+](=O)[O-])cc3)c3c1CCC3)CCCC2
    -1%, -1%
- O=C(COC(=O)c1ccccc1C(=O)c1ccc(Cl)cc1)NC(c1ccccc1)c1ccccc1
    ?, ?
- COc1ccc(C(=O)N/N=C/c2ccc3cccc(OCc4ccccc4)c3n2)cc1
    ?, ?
- CCCCn1c(=O)c2ccccc2n2c(=S)[nH]nc12
    -6%, -5%
- O=C(c1cc([N+](=O)[O-])ccc1Cl)N1CCN(c2ccc([N+](=O)[O-])cc2)CC1
    -17%, -2%
- COC(=O)C1=C(c2ccc(OCc3ccccc3)cc2)C[C@@H]2CC[C@H]1N2C(=O)NCCCCc1ccccc1
    ?, -28%
- NC(=O)CSc1nnc(-c2cc3ccccc3o2)n1Cc1ccccc1
    -8%, nt
- CCOC(=O)C(C)Sc1nnc(Cc2cc(=O)[nH]c(=O)[nH]2)n1-c1cccc(OC)c1 (stereo not drawn)
    10%, -7%
- Cc1ccc2c(C)c(C(=O)NCc3ccc(S(N)(=O)=O)cc3)oc2c1
    -5%, 2%
- O=C(O)CN1C(=O)C(=O)N(Cc2ccccc2F)C1=O
    -2%, i
- Cc1ccc(-c2nc3c(c(SCC(=O)N4CCCCC4)n2)Cc2cc(C)ccc2O3)cc1
    -10%, -7%
- CN(Cc1ccc(F)cc1)S(=O)(=O)c1nnc(NC(=O)c2ccccc2Br)s1
    -11%, -19%
- CCC(C)NC(=O)Cn1c(=O)c2cccn2c2ccc(F)cc21 (stereo not drawn)
    -6%, 3%
- C#CCOCCOCCOCCNc1nc(N2CCN(C(=O)[C@H](CCCCN)n3cc(CCCC)nn3)CC2)nc(N2CCN(C(=O)[C@H](CCCCN)n3cc(CCCC)nn3)CC2)n1
    -6%, i
- COc1ccc(NC(=O)CCNC(=O)Cn2cnc3ccccc3c2=O)c(OC)c1
    -18%, -14%
- O=C(NCCNC(=O)c1ccccc1Cl)c1ccco1
    0%, -9%
- Cc1ccc(OCc2nnc(NC(=O)c3ccco3)s2)c(C)c1
    -6%, i
- O=C1CC[C@@H](O)CCN1CC[C@H](Sc1ccccc1)c1ccccc1
    -15%&-13%, -26%
- Cn1ncc2c(=O)n(CC(=O)NC34CC5CC(CC(C5)C3)C4)cnc21
    -13%, i
